Source: PubChem BioAssay (Broad Institute)
Yeast UUG start – alters start codon recognition fidelity in yeast. AID 602363. 350,000 compounds, 0.13% hits. S. cerevisiae UUG-firefly luciferase reporter, luminescence/redox ratio. activity score, % at 18.7 µM;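 active means replicate mean at a twofold rise or more, about +100% in these data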;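 further: firefly luciferase made from a UUG start codon reports start codon fidelity; reporter light over untreated wells divided by growth signal over untreated wells; some hits fall short of that in this replicate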
Env fusion inh – inhibitors of HIV Env-mediated cell fusion. HeLa-JRFL Env/CEM21 cell fusion, luciferase. inhibition, % at 12.3 µM. 360,000 compounds, 1.1% hits. AID 651610;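 active means mean replicate inhibition score of at least 50 and every replicate individually at or above 50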;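 further: 0% = plate neutral controls and 100% = maraviroc near 300 nM; one replicate is shown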
* hit, by the source's call; [ ] = another dose, or the depositor's remark. This is a subset (hit frequency here may not be typical).

nr | smiles | Yeast UUG start | Env fusion inh
1 | COc1ccc(S(=O)(=O)Nc2ccc3c(c2)C(=O)N([C@@H](C)CO)C[C@@H](C)[C@@H](CN(C)C(=O)Nc2ccc4c(c2)OCO4)O3)cc1 | -4 | 34[16.7 µM]
2 | C[C@H]1CCCCO[C@@H](CN(C)S(=O)(=O)c2ccc(F)cc2)[C@@H](C)CN([C@@H](C)CO)C(=O)c2cc(N(C)C)ccc2O1 | 20 | -67[16.7 µM]
3 | CCC(=O)N1C[C@@H](C)[C@H](OC)CN(C)C(=O)c2cc(NC(=O)Nc3ccccc3)ccc2OC[C@@H]1C | 3 | 13[16.7 µM]
4 | O=C(Nc1ccccc1F)N[C@@H]1CC[C@@H](CCNC(=O)C2CCOCC2)O[C@@H]1CO | -8 | -4[16.7 µM]
5 | O=C(C[C@H]1C[C@H]2c3cc(NS(=O)(=O)c4ccc(F)cc4)ccc3O[C@H]2[C@H](CO)O1)NCC1CC1 | -9 | 4[16.7 µM]
6 | Cc1ccc(S(=O)(=O)N2C[C@H](O)COC[C@H]3O[C@H](CC(=O)NCc4ccc5c(c4)OCO5)CC[C@@H]32)cc1 | 2 | 3[16.7 µM]
7 | CO[C@H]1CN(C)C(=O)c2cc(NS(C)(=O)=O)ccc2OC[C@@H](C)N(Cc2ccccc2)C[C@H]1C | -6 | -3[16.7 µM]
8 | COc1ccc([C@@H](OC(=O)Nc2ccc(SC)cc2)[C@@H](CCO)OC)cc1O | 151* | 8[16.7 µM]
9 | CO[C@@H]1CN(C)C(=O)c2ccc(NC(=O)c3cccc(F)c3)cc2OC[C@H](C)N(C(C)=O)C[C@@H]1C | -3 | -17[16.7 µM]
10 | O=C(C[C@H]1C=C[C@H](NC(=O)NC2CCCCC2)[C@@H](CO)O1)NCc1ccc(F)cc1 | -3 | -2[16.7 µM]

Sorted by count of non-hydrogen atoms (smallest number first): part of the list above.
nr | smiles | Yeast UUG start | Env fusion inh
10 | O=C(C[C@H]1C=C[C@H](NC(=O)NC2CCCCC2)[C@@H](CO)O1)NCc1ccc(F)cc1 | -3 | -2[16.7 µM]
7 | CO[C@H]1CN(C)C(=O)c2cc(NS(C)(=O)=O)ccc2OC[C@@H](C)N(Cc2ccccc2)C[C@H]1C | -6 | -3[16.7 µM]
9 | CO[C@@H]1CN(C)C(=O)c2ccc(NC(=O)c3cccc(F)c3)cc2OC[C@H](C)N(C(C)=O)C[C@@H]1C | -3 | -17[16.7 µM]

Next entries follow.
nr | smiles | Yeast UUG start | Env fusion inh
11 | C[C@H]1CN([C@@H](C)CO)S(=O)(=O)c2ccc(-c3cccnc3)cc2O[C@H]1CN(C)C(=O)NC1CCCC1 | -16 | -5[16.7 µM]
12 | C[C@H]1CN([C@@H](C)CO)C(=O)c2cc(-c3ccc(C#N)cc3)cnc2O[C@@H]1CN(C)C(=O)Nc1ccccc1 | -9 | 7[16.7 µM]
13 | COCC(=O)Nc1ccc2c(c1)C(=O)N(C)C[C@@H](OC)[C@H](C)CN(C(=O)c1ccccc1F)[C@@H](C)CO2 | -10 | -5[16.7 µM]
14 | Cc1ccc(S(=O)(=O)N[C@H]2CC[C@H](CCNC(=O)CN3CCOCC3)O[C@@H]2CO)cc1 | -8 | 19[16.7 µM]
15 | C[C@H](CO)N1C[C@H](C)[C@H](CN(C)Cc2ccc(F)cc2)Oc2ncc(-c3ccccc3F)cc2C1=O | 11 | 12[16.7 µM]
16 | COCC(=O)Nc1ccc2c(c1)C(=O)N(C)[C@@H]1CC[C@@H](CC(=O)OC)O[C@@H]1CO2 | 4 | -2[16.7 µM]
17 | C[C@@H]1CN([C@H](C)CO)C(=O)Cc2cc(NS(=O)(=O)c3cn(C)cn3)ccc2O[C@@H]1CN(C)Cc1ccc(Oc2ccccc2)cc1 | 7 | 14[16.7 µM]
18 | C[C@@H]1CN([C@@H](C)CO)C(=O)c2cc(-c3cccc(F)c3)cnc2O[C@H]1CN(C)C | -5 | -11[16.7 µM]
19 | Cc1ccc(S(=O)(=O)N(C)C[C@@H]2OCCCC[C@H](C)Oc3ccc(NC(=O)C4CCCCC4)cc3C(=O)N([C@@H](C)CO)C[C@@H]2C)cc1 | -6 | 49[16.7 µM]
20 | C[C@@H]1CCCCO[C@@H](CN(C)C(=O)Nc2ccc(C(F)(F)F)cc2)[C@@H](C)CN([C@H](C)CO)C(=O)c2cc(N(C)C)ccc2O1 | 3 | 8[16.7 µM]
21 | COc1ccc(S(=O)(=O)Nc2ccc3c(c2)C(=O)N([C@H](C)CO)C[C@@H](C)[C@H](CN(C)S(=O)(=O)c2ccc(Cl)cc2)OCCCC[C@@H](C)O3)cc1 | -12 | 3[16.7 µM]
22 | COCC#Cc1ccc2c(c1)O[C@@H](CN(C)Cc1cccnc1)[C@H](C)CN([C@@H](C)CO)S2(=O)=O | -16 | -9[16.7 µM]
23 | C[C@H](CO)N1C[C@H](C)[C@@H](CN(C)C(=O)Nc2ccccc2)OCCCC[C@H](C)Oc2ccc(NS(=O)(=O)c3cccs3)cc2C1=O | 2 | -18[16.7 µM]
24 | C[C@@H]1CN([C@@H](C)CO)S(=O)(=O)c2ccc(C#CC3CC3)cc2O[C@H]1CN(C)C(=O)c1cnccn1 | 4 | -9[16.7 µM]
25 | Cc1ccc(-c2ccc3c(c2)O[C@@H](CN(C)C(=O)NC(C)C)[C@H](C)CN([C@H](C)CO)S3(=O)=O)cc1 | 19 | -13[16.7 µM]
26 | C[C@@H]1CN([C@@H](C)CO)C(=O)c2cccc(NC(=O)Nc3cccc4ccccc34)c2O[C@H]1CN(C)S(=O)(=O)c1ccc(Cl)cc1 | -6 | -21[16.7 µM]
27 | CC(=O)N1C[C@H]2CON(C)[C@H]2C[C@H]1c1ccccc1 | -1 | 10
28 | C[C@@H]1CCCCO[C@H](CN(C)Cc2ccc3c(c2)OCO3)[C@H](C)CN([C@@H](C)CO)C(=O)c2cc(NC(=O)Cc3ccccc3)ccc2O1 | 28 | -21[16.7 µM]
29 | Cc1noc(C)c1S(=O)(=O)Nc1ccc2c(c1)C(=O)N([C@@H](C)CO)C[C@@H](C)[C@H](CN(C)Cc1ccccc1)O2 | 4 | -1[16.7 µM]
30 | O=C(N[C@@H]1CC[C@@H](CCn2cc(-c3ccccn3)nn2)O[C@@H]1CO)c1ccncc1 | -16 | -21[16.7 µM]
31 | CCC(=O)Nc1ccc2c(c1)C(=O)N(C)[C@@H]1CC[C@H](CC(=O)NCCc3ccncc3)O[C@H]1CO2 | -18 | -9[16.7 µM]
32 | C[C@H](O)C#Cc1ccc2c(c1)O[C@@H](CN(C)C(=O)C1CCC1)[C@@H](C)CN([C@@H](C)CO)S2(=O)=O | 9 | -31[16.7 µM]
33 | COc1ccc(S(=O)(=O)N(C)C[C@@H]2Oc3ccc(NS(=O)(=O)c4cccs4)cc3CC(=O)N([C@H](C)CO)C[C@@H]2C)cc1 | 9 | 42[16.7 µM]
34 | C[C@H](CO)N1C[C@H](C)[C@H](CN(C)C(=O)CCCN(C)C)OCCCC[C@H](C)Oc2ccc(NC(=O)Nc3cccc4ccccc34)cc2C1=O | -4 | -20[16.7 µM]
35 | O=C(N[C@H]1CC[C@@H](CCNS(=O)(=O)c2ccc(F)cc2)O[C@H]1CO)C1CCC1 | 0 | -4[16.7 µM]
36 | CCCNC(=O)C[C@@H]1CC[C@@H]2[C@@H](COc3ccc(NC(=O)c4cc(C)on4)cc3C(=O)N2C)O1 | -8 | 2[16.7 µM]
37 | COc1ccc(NC(=O)Nc2ccc3c(c2)CC(=O)N([C@H](C)CO)C[C@H](C)[C@@H](CN(C)C(=O)NC(C)C)O3)cc1 | 6 | 4[16.7 µM]
38 | C[C@@H]1CN([C@H](C)CO)C(=O)c2cc(-c3cccc(F)c3)cnc2O[C@H]1CN(C)C(=O)c1cnccn1 | -6 | -6[16.7 µM]
39 | COc1ccc(-c2ccc3c(c2)O[C@@H](CN(C)Cc2ccccc2C(=O)O)[C@H](C)CN([C@H](C)CO)S3(=O)=O)cc1 | -7 | 8[16.7 µM]
40 | C[C@@H]1CCCCO[C@@H](CN(C)C(=O)c2ccccc2)[C@H](C)CN([C@@H](C)CO)C(=O)c2cc(NC(=O)CCCN(C)C)ccc2O1 | 9 | 11[16.7 µM]
41 | C[C@@H]1CCCCO[C@H](CN(C)C(=O)Cc2ccccc2)[C@@H](C)CN([C@@H](C)CO)C(=O)c2cc(NS(=O)(=O)c3ccccc3)ccc2O1 | 3 | -108[16.7 µM]
42 | C[C@H]1CN([C@@H](C)CO)C(=O)Cc2cc(NC(=O)Nc3ccccc3)ccc2O[C@H]1CN(C)Cc1ccc(-c2ccccc2)cc1 | -8 | 9[16.7 µM]
43 | CCS(=O)(=O)Nc1ccc2c(c1)C(=O)N(C)[C@H]1CC[C@H](CC(=O)N3CCCCC3)O[C@H]1CO2 | 3 | 8[16.7 µM]
44 | Cc1ccc(S(=O)(=O)Nc2ccc3c(c2)C(=O)N([C@@H](C)CO)C[C@H](C)[C@H](CN(C)Cc2ccncc2)OCCCC[C@@H](C)O3)cc1 | 22 | -53[16.7 µM]
45 | O=C(C[C@H]1C=C[C@@H](NC(=O)Nc2ccc(F)cc2)[C@@H](CO)O1)NCCN1CCCC1 | -10 | 14[16.7 µM]
46 | CC(C)c1cn(CC[C@@H]2CC[C@H](NC(=O)c3cccc(F)c3)[C@@H](CO)O2)nn1 | 0 | 2[16.7 µM]
47 | COc1cccc(NC(=O)N2C[C@H](O)COC[C@H]3O[C@@H](CC(=O)N(C)C)CC[C@@H]32)c1 | -5 | 3[16.7 µM]
48 | COc1ccc(NC(=O)N(C)C[C@H]2OCCCC[C@H](C)Oc3ccc(NC(=O)NC4CCCCC4)cc3C(=O)N([C@@H](C)CO)C[C@@H]2C)cc1 | -4 | 11[16.7 µM]
49 | C[C@@H]1CCCCO[C@H](CN(C)S(=O)(=O)c2cn(C)cn2)[C@H](C)CN([C@@H](C)CO)C(=O)c2cc(NS(=O)(=O)c3ccc(F)cc3)ccc2O1 | 5 | 10[16.7 µM]
50 | C[C@@H]1CN([C@H](C)CO)C(=O)c2cc(-c3ccccc3F)cnc2O[C@H]1CN(C)C(=O)NC1CCCCC1 | -2 | -2[16.7 µM]
51 | CO[C@H]1CN(C)C(=O)c2ccc(NC(=O)Nc3ccccc3F)cc2OC[C@@H](C)N(C(C)=O)C[C@@H]1C | 13 | -1[16.7 µM]
52 | Cc1ccc(S(=O)(=O)Nc2ccc3c(c2)C(=O)N([C@H](C)CO)C[C@@H](C)[C@@H](CN(C)Cc2ccc(C(F)(F)F)cc2)OCCCC[C@@H](C)O3)cc1 | 12 | 69*[16.7 µM]
53 | O=C(C[C@@H]1C[C@H]2c3cc(NC(=O)C4CCOCC4)ccc3O[C@H]2[C@@H](CO)O1)NCc1ccc(Cl)cc1 | -6 | 7[16.7 µM]
54 | Cc1noc(C)c1S(=O)(=O)Nc1ccc2c(c1)C(=O)N([C@H](C)CO)C[C@H](C)[C@H](CN(C)C(=O)Nc1ccc(F)cc1)OCCCC[C@@H](C)O2 | 2 | -9[16.7 µM]
55 | Cc1ccc(-c2ccc3c(c2)O[C@@H](CN(C)CC2CC2)[C@@H](C)CN([C@@H](C)CO)S3(=O)=O)cc1 | 14 | 3[16.7 µM]
56 | COc1ccc(NC(=O)N(C)C[C@H]2Oc3c(NC(=O)c4ccc(-c5nccs5)cc4)cccc3C(=O)N([C@@H](C)CO)C[C@H]2C)cc1 | 4 | -169[16.7 µM]
57 | COc1ccc(NC(=O)N(C)C[C@@H]2Oc3ncc(C#C[C@H](C)O)cc3C(=O)N([C@H](C)CO)C[C@@H]2C)cc1 | -14 | -5[16.7 µM]
58 | O=C(C[C@H]1CC[C@@H](NC(=O)Cc2ccccn2)[C@@H](CO)O1)NCCc1ccccc1 | -5 | -5[16.7 µM]
59 | CC(C)NC(=O)N(C)C[C@@H]1Oc2cc(C#Cc3cccc(F)c3)ccc2S(=O)(=O)N([C@H](C)CO)C[C@@H]1C | 60 | -2[16.7 µM]
60 | COCC(=O)N1C[C@H](C)[C@@H](OC)CN(C)C(=O)c2ccc(NC(=O)c3ccc(F)cc3)cc2OC[C@H]1C | 10 | -4[16.7 µM]

Other records
nr | smiles | Yeast UUG start | Env fusion inh
61 | Cc1ccc(S(=O)(=O)N(C)C[C@H]2OCCCC[C@H](C)Oc3ccc(NC(=O)c4ccncc4)cc3C(=O)N([C@H](C)CO)C[C@H]2C)cc1 | -11 | 6[16.7 µM]
62 | O=C(C[C@@H]1C=C[C@@H](NS(=O)(=O)c2ccc(F)cc2)[C@@H](CO)O1)NCc1ccc(Cl)c(Cl)c1 | -7 | -4[16.7 µM]
63 | Cc1noc(C)c1S(=O)(=O)Nc1ccc2c(c1)C(=O)N([C@@H](C)CO)C[C@@H](C)[C@@H](CN(C)S(=O)(=O)c1cn(C)cn1)OCCCC[C@@H](C)O2 | -3 | 7[16.7 µM]
64 | CC(C)CC#Cc1cnc2c(c1)C(=O)N([C@@H](C)CO)C[C@H](C)[C@@H](CN(C)C(=O)Cc1ccncc1)O2 | -7 | -10[16.7 µM]
65 | C[C@@H]1CCCCO[C@H](CN(C)Cc2ccccc2)[C@@H](C)CN([C@@H](C)CO)C(=O)c2cc(NS(=O)(=O)c3ccc(Cl)cc3)ccc2O1 | 21 | 30[16.7 µM]
66 | COc1ccc(S(=O)(=O)N(C)C[C@@H]2Oc3ccc(NC(=O)NC(C)C)cc3C(=O)N([C@H](C)CO)C[C@H]2C)cc1 | -16 | 18[16.7 µM]
67 | C[C@H]1CN([C@@H](C)CO)S(=O)(=O)c2ccc(-c3cccc(C#N)c3)cc2O[C@@H]1CN(C)Cc1ccccn1 | -18 | 33[16.7 µM]
68 | COc1ccc(NC(=O)Nc2ccc3c(c2)[C@H]2C[C@@H](CC(=O)N[C@@H](C)c4ccccc4)O[C@H](CO)[C@H]2O3)cc1 | -7 | -3[16.7 µM]

A different layout for some results above.
66. COc1ccc(S(=O)(=O)N(C)C[C@@H]2Oc3ccc(NC(=O)NC(C)C)cc3C(=O)N([C@H](C)CO)C[C@H]2C)cc1
67. C[C@H]1CN([C@@H](C)CO)S(=O)(=O)c2ccc(-c3cccc(C#N)c3)cc2O[C@@H]1CN(C)Cc1ccccn1

Screen / compound no.	66	67
Yeast UUG start	-16	-18
Env fusion inh	18[16.7 µM]	33[16.7 µM]
